# MLL AF4-AF9 inh = blocks AF4 peptide binding to human AF9; inhibition, % at 10 µM; AID 651704; P42568; AlphaScreen, biotin-AF4 peptide binding to FLAG-AF9; hit rate 0.47% among 350,000;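 active = every replicate reaching a set inhibition limit, whatever the replicate mean, cut at about 25% in these data; inconclusive = mean inhibition reaches that limit but some replicates miss it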;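 also: 0% = plate neutral control median and 100% = total signal loss; the record names both 10 and 1 µM as test concentration; the first replicate is given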
# Target sequence (P42568 whole entry, looked up): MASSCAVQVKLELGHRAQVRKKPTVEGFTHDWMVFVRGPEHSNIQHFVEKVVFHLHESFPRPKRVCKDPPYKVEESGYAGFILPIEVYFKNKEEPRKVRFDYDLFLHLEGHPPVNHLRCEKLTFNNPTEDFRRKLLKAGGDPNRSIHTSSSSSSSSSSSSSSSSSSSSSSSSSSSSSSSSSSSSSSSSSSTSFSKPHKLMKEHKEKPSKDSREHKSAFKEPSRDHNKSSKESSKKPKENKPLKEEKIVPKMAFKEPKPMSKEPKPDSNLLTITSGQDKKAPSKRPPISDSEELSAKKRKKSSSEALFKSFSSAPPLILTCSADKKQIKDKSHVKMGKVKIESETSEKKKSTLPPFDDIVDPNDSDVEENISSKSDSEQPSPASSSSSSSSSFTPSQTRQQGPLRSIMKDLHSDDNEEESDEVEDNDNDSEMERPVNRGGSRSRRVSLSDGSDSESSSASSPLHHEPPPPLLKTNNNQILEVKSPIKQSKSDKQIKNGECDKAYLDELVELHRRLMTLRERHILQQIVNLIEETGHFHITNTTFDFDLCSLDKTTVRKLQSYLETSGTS
# Ecoli rRNA inh = inhibits bacterial ribosomal RNA function over humanized ribosomes; E. coli WT GFP vs humanized-ribosome RFP mutants, fluorescence, 24 h; hits give low values; DMSO median 0, no signal -100; GFP signal change (wild-type ribosome), % (test concentration not listed); hit rate 1.6% among 350,000; AID 720706;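 active = significant combined selectivity score with lowered wild-type GFP, culture density cut under 30%, mutant RFP and density less affected; inactive = any of these conditions unmet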; also: one replicate is shown; some compounds called inactive have numbers as strong as hits
# Ecoli rRNA inh OD600 = recorded beside Ecoli rRNA inh, whose call it bears; OD600 change, %; measured here: OD600 growth;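 optical density of the mix in the first replicate; 0 = DMSO median and -100 = no signal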
# Ecoli rRNA inh RFP = second read-out of Ecoli rRNA inh, no call of its own (marks repeat the call); RFP signal change, %; measured here: RFP humanized mutant strains;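 first replicate; 0 = DMSO median and -100 = no signal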
# The depositor's hits bear a star; ? = inconclusive; & = joins results of further samples. Only part of the results is shown; the hit share may differ from the screen's.
SMILES,MLL AF4-AF9 inh,Ecoli rRNA inh,Ecoli rRNA inh OD600,Ecoli rRNA inh RFP
O=C(C[C@H]1CC[C@@H](NC(=O)C2CCOCC2)[C@@H](CO)O1)NCc1ccncc1,-1.9,1,-3,1.0
CO[C@@H]1CN(C)C(=O)c2cc(NC(=O)Cc3ccccc3)ccc2OC[C@H](C)N(CC2CC2)C[C@@H]1C,0.1,1,4,-0.2
C[C@H](NC(=O)C[C@@H]1C=C[C@@H](NC(=O)Nc2ccc3c(c2)OCO3)[C@@H](CO)O1)c1ccccc1,-3.7,-2,-12,1.3
O=C(CN1CCOCC1)N[C@H]1CC[C@H](CCn2cc(C3CCCC3)nn2)O[C@@H]1CO,0.0,4,-2,-0.2
CCCC#Cc1ccc([C@@H]2[C@H](CO)N3C(=O)CN(C(=O)c4ccc(F)cc4)C[C@@H]23)cc1,-0.4,5,-9,6.4
CCCNC(=O)Nc1ccc2c(c1)C(=O)N(C)C[C@H](OC)[C@H](C)CN(CCC)[C@H](C)CO2,1.8,-1,0,-5.0
O=C(Cc1ccccn1)N1CC(=O)N2[C@@H](CO)[C@@H](c3ccc(-c4ccc(F)cc4)cc3)[C@@H]2C1,-1.5,1,-2,-3.0
Cc1noc(C)c1S(=O)(=O)N(C)C[C@@H]1Oc2ccc(NC(=O)CCN3CCOCC3)cc2CC(=O)N([C@@H](C)CO)C[C@H]1C,3.3,4,12,-0.8
O=C(C[C@@H]1C=C[C@@H](NC(=O)c2cccnc2)[C@H](CO)O1)NCc1ccncn1,0.1,4,4,0.0
O=C(c1ccc(F)cc1)N1CC(=O)N2[C@H](CO)[C@H](c3ccc(C#CC4CCCC4)cc3)[C@@H]2C1,1.9,-9,-43,30
C/C=C/c1ccc([C@@H]2[C@@H](CO)N3C(=O)CN(Cc4ccc(C(=O)OC)cc4)C[C@@H]23)cc1,6.3,5,-12,13
O=C(C1CCCC1)N1CC2(C1)[C@H](c1ccccc1)[C@H](CO)N2Cc1cncnc1,-1.8,2,4,-2.9
COc1cccc(-c2ccc([C@H]3[C@H](CO)N4C(=O)CN(C(=O)C5CCCC5)C[C@@H]34)cc2)c1,1.1,0,14,-2.9
COc1ccc(C#Cc2ccc([C@H]3[C@@H](CO)N4C(=O)CN(C(C)=O)C[C@@H]34)cc2)cc1,-1.1,-1,-9,-0.5
CC(C)C#Cc1ccc([C@@H]2[C@H](CO)N3C(=O)CN(C(=O)c4ccc5c(c4)OCO5)C[C@@H]23)cc1,3.0,-3,-1,-0.3
N#C[C@@H]1[C@H](c2ccccc2C2=CCCC2)[C@H](CO)N1C(=O)NC1CCCCC1,0.6,-26,-66,-0.5
CCCC#Cc1ccc([C@@H]2[C@H](CO)N3C(=O)CN(S(=O)(=O)c4ccccc4C)C[C@@H]23)cc1,-0.4,1,-4,0.5
CCCNC(=O)N1CC2(CN(Cc3cccnc3)C2)c2c(n(C)c3cc(OC)ccc23)[C@H]1CO,13,0,6,-0.6
CCN1CC(=O)N2[C@H](CO)[C@@H](c3ccc(Br)cc3)[C@@H]2C1,0.5,1,-1,-2.5
O=C(Cc1ccccn1)N[C@H]1CC[C@@H](CCn2cc(-c3ccc(F)cc3)nn2)O[C@@H]1CO,-15,-4,0,1.4
CCc1nc(N2[C@@H](C#N)[C@H](c3ccccc3-c3ccccc3C)[C@@H]2CO)sc1C,0.3,-2,-43,-3.0
COc1cccc(NC(=O)N2CC(=O)N3[C@H](CO)[C@@H](c4ccc(Br)cc4)[C@H]3C2)c1,-0.6,-3,9,0.5
O=C(C[C@H]1CC[C@H]2[C@@H](COC[C@@H](O)CN2Cc2nccs2)O1)NCc1ccccc1,-1.5,5,10,-4.8
C[C@H]1CCCCO[C@H](CN(C)S(=O)(=O)c2ccc(F)cc2)[C@@H](C)CN([C@@H](C)CO)C(=O)c2cc(NC(=O)Nc3ccc4c(c3)OCO4)ccc2O1,1.0,3,2,-1.3

# 14 entries from above in another layout:
# Every second line gives: MLL AF4-AF9 inh	Ecoli rRNA inh	Ecoli rRNA inh OD600	Ecoli rRNA inh RFP
> O=C(C[C@H]1CC[C@@H](NC(=O)C2CCOCC2)[C@@H](CO)O1)NCc1ccncc1
→ -1.9	1	-3	1.0
> CO[C@@H]1CN(C)C(=O)c2cc(NC(=O)Cc3ccccc3)ccc2OC[C@H](C)N(CC2CC2)C[C@@H]1C
→ 0.1	1	4	-0.2
> C[C@H](NC(=O)C[C@@H]1C=C[C@@H](NC(=O)Nc2ccc3c(c2)OCO3)[C@@H](CO)O1)c1ccccc1
→ -3.7	-2	-12	1.3
> O=C(CN1CCOCC1)N[C@H]1CC[C@H](CCn2cc(C3CCCC3)nn2)O[C@@H]1CO
→ 0.0	4	-2	-0.2
> CCCC#Cc1ccc([C@@H]2[C@H](CO)N3C(=O)CN(C(=O)c4ccc(F)cc4)C[C@@H]23)cc1
→ -0.4	5	-9	6.4
> CCCNC(=O)Nc1ccc2c(c1)C(=O)N(C)C[C@H](OC)[C@H](C)CN(CCC)[C@H](C)CO2
→ 1.8	-1	0	-5.0
> O=C(Cc1ccccn1)N1CC(=O)N2[C@@H](CO)[C@@H](c3ccc(-c4ccc(F)cc4)cc3)[C@@H]2C1
→ -1.5	1	-2	-3.0
> Cc1noc(C)c1S(=O)(=O)N(C)C[C@@H]1Oc2ccc(NC(=O)CCN3CCOCC3)cc2CC(=O)N([C@@H](C)CO)C[C@H]1C
→ 3.3	4	12	-0.8
> O=C(C[C@@H]1C=C[C@@H](NC(=O)c2cccnc2)[C@H](CO)O1)NCc1ccncn1
→ 0.1	4	4	0.0
> O=C(c1ccc(F)cc1)N1CC(=O)N2[C@H](CO)[C@H](c3ccc(C#CC4CCCC4)cc3)[C@@H]2C1
→ 1.9	-9	-43	30
> C/C=C/c1ccc([C@@H]2[C@@H](CO)N3C(=O)CN(Cc4ccc(C(=O)OC)cc4)C[C@@H]23)cc1
→ 6.3	5	-12	13
> O=C(C1CCCC1)N1CC2(C1)[C@H](c1ccccc1)[C@H](CO)N2Cc1cncnc1
→ -1.8	2	4	-2.9
> COc1cccc(-c2ccc([C@H]3[C@H](CO)N4C(=O)CN(C(=O)C5CCCC5)C[C@@H]34)cc2)c1
→ 1.1	0	14	-2.9
> COc1ccc(C#Cc2ccc([C@H]3[C@@H](CO)N4C(=O)CN(C(C)=O)C[C@@H]34)cc2)cc1
→ -1.1	-1	-9	-0.5

# Other entries:
SMILES,MLL AF4-AF9 inh,Ecoli rRNA inh,Ecoli rRNA inh OD600,Ecoli rRNA inh RFP
COc1ccc(C#Cc2ccc([C@@H]3[C@H](CO)N4C(=O)CN(C(=O)c5ccc(F)cc5)C[C@@H]34)cc2)cc1,-2.1,-27,-37,8.8
N#C[C@H]1[C@@H](c2ccccc2-c2cccc(F)c2)[C@@H](CO)N1C(=O)C1CCCC1,-15,-5,-10,1.7
COc1ccc2c3c([nH]c2c1)[C@@H](CO)N(C(=O)c1ccc(F)cc1)CC31CCN(C(=O)NC(C)C)CC1,-8.4,4,11,1.3
O=C(COC(=O)c1cnccn1)NCc1ccccc1Cl,-3.5,11,12,2.9
COc1cccc(C#Cc2ccc([C@@H]3[C@@H](CO)N4C(=O)CN(C(=O)Cc5ccccc5)C[C@@H]34)cc2)c1,-0.4,-1,-17,26
CC(=O)N1[C@H](CO)[C@H](c2ccccc2)C12CN(C(=O)c1ccccc1)C2,-2.1,0,4,0.5
CCCC#Cc1ccc([C@@H]2[C@@H](CO)N3C(=O)CN(C(=O)c4ccncc4)C[C@@H]23)cc1,-2.5,3,7,1.2
CN(C)CC#Cc1ccc([C@@H]2[C@H]3CN(C(=O)c4cccc(F)c4)CC(=O)N3[C@H]2CO)cc1,-3.2,-2,-4,0.8
CN1C(=O)c2cc(NC(=O)C3CC3)ccc2OC[C@H]2O[C@H](CC(=O)O)CC[C@@H]21,-2.0,2,-4,-1.6
CC(C)NC(=O)N1[C@H](CO)[C@@H]2c3ccccc3N(C(=O)Nc3ccc(Cl)cc3)C[C@@H]21,-0.5,-16,-7,-3.9
CCCC#Cc1ccc([C@@H]2[C@H](CO)N3C(=O)CN(C(=O)NC4CCCC4)C[C@@H]23)cc1,0.5,-1,-9,-1.1
C/C=C/c1ccc([C@H]2[C@@H](CO)N3C(=O)CN(S(=O)(=O)c4cccc(F)c4)C[C@@H]23)cc1,1.2,-1,-15,6.3

# Complete entries, looked up by structure.
# O=C(CN1CCOCC1)N[C@H]1CC[C@H](CCn2cc(C3CCCC3)nn2)O[C@@H]1CO as listed: MLL AF4-AF9 inh: 0.0; Ecoli rRNA inh: 4; Ecoli rRNA inh OD600: -2; Ecoli rRNA inh RFP: -0.2
# C[C@H]1CCCCO[C@H](CN(C)S(=O)(=O)c2ccc(F)cc2)[C@@H](C)CN([C@@H](C)CO)C(=O)c2cc(NC(=O)Nc3ccc4c(c3)OCO4)ccc2O1 as listed: MLL AF4-AF9 inh: 1.0; Ecoli rRNA inh: 3; Ecoli rRNA inh OD600: 2; Ecoli rRNA inh RFP: -1.3

# (list continues)
SMILES,MLL AF4-AF9 inh,Ecoli rRNA inh,Ecoli rRNA inh OD600,Ecoli rRNA inh RFP
N#C[C@H]1[C@H](c2ccc(C#CC3CCCCC3)cc2)[C@H](CO)N1C(=O)Nc1ccc(F)cc1,-1.3,3,-14,-2.2
O=C(COc1coc(CN2CCN(c3ccc(F)cc3)CC2)cc1=O)NC1CCCCC1,1.1,0,7,5.0
CO[C@H](CN(C)S(=O)(=O)c1cccc(Cl)c1)[C@@H](C)CN([C@H](C)CO)S(=O)(=O)c1cccc(Cl)c1,-15,-3,-29,35
CO[C@@H]1CN(C)C(=O)c2ccc(NC(=O)c3cc(C)on3)cc2OC[C@@H](C)N(C)C[C@H]1C,-2.2,0,4,-1.6
COc1cccc(-c2ccc(C3[C@@H]4CN(S(=O)(=O)c5ccccc5C)C[C@H]3N4)cc2)c1 (some centres undefined),-0.2&4.6,-6&-60,-43&-73,4.9&-13
CO[C@H]1CN(C)C(=O)c2cc(NS(=O)(=O)c3ccc(Cl)cc3)ccc2OC[C@@H](C)N(C)C[C@@H]1C,-0.5,0,1,1.4
COc1ccccc1S(=O)(=O)N1C[C@@H]2N[C@H](C1)C2c1ccc(-c2cccc(C)c2)cc1 (some centres undefined),-3.6&2.0,-29&-60,-34&-74,3.1&-12
C[C@H]1CN([C@@H](C)CO)C(=O)c2cc(-c3cccc(F)c3)cnc2O[C@H]1CN(C)Cc1cccnc1,-2.1,3,-9,-0.9
COc1ccc(-c2ccc([C@H]3[C@@H](CO)N4C(=O)CN(C(=O)c5ccccc5)C[C@@H]34)cc2)cc1,-4.0,1,8,-5.5
CO[C@@H]1CN(C)C(=O)c2ccc(NC(=O)c3ccc(F)cc3)cc2OC[C@H](C)N(C)C[C@@H]1C,0.4,0,2,-1.9
CCCNC(=O)[C@H]1[C@H](CO)[C@H]2Cn3c(ccc(-c4cccc(OC)c4)c3=O)[C@H]2N1Cc1nccs1,4.5,-5,-3,2.0
Cc1ccccc1S(=O)(=O)N1CC(=O)N2[C@H](CO)[C@H](c3ccc(C#CC4CC4)cc3)[C@@H]2C1,-1.7,0,-34,15
Fc1ccc(-c2ccc(C3[C@@H]4CN(Cc5cccc(F)c5)C[C@H]3N4)cc2)cc1 (some centres undefined),?,-57&-59,-78&-79,-15&-13
CN1C(=O)c2cc(NC(=O)c3cccc(F)c3)ccc2OC[C@@H]2O[C@@H](CC(=O)NCC3CC3)CC[C@H]21,-4.5,2,0,0.5
CN(C[C@@H]1N[C@H](CO)[C@@H]1c1ccc(C#CCC2CCCC2)cc1)S(C)(=O)=O,-1.7,0,-8,5.3
CCNC(=O)C[C@@H]1CC[C@H]2[C@@H](COc3ccc(NC(=O)c4ccccc4)cc3C(=O)N2C)O1,-1.6,4,9,-1.8
C[C@H]1CN([C@@H](C)CO)C(=O)c2cc(-c3ccncc3)cnc2O[C@@H]1CN(C)C(=O)c1cccc(F)c1,0.5,-4,2,-4.0
C[C@@H]1CCCCO[C@@H](CN(C)S(=O)(=O)c2ccccc2)[C@@H](C)CN([C@@H](C)CO)C(=O)c2cc(NC(=O)C3CCCCC3)ccc2O1,0.1,4,1,-1.4
COc1cccc(-c2ccc([C@H]3[C@@H](CO)N4C(=O)CNC[C@@H]34)cc2)c1,-1.2,3,10,2.3
N#Cc1ccc(-c2ccc(C3[C@H]4CNC[C@@H]3N4C(=O)Nc3ccccc3F)cc2)cc1 (some centres undefined),3.0,1,-6,-4.8
COc1ccc2c3c(n(C)c2c1)[C@H](CO)N(Cc1ccc(F)cc1)CC31CCN(C)CC1,22,3,5,-2.5
Cc1ccc(S(=O)(=O)Nc2ccc3c(c2)C(=O)N([C@@H](C)CO)C[C@@H](C)[C@H](CN(C)C(=O)Cc2ccccc2)OCCCC[C@H](C)O3)cc1,-4.1,-1,5,0.6
CO[C@H]1CN(C)C(=O)c2ccc(NC(=O)C3CC3)cc2OC[C@@H](C)N(C(C)=O)C[C@@H]1C,2.0,-1,-3,-2.1
